Screens deposited in PubChem by several laboratories.
PrP UTR inh = inhibition of PrP 5' UTR reporter expression. cell-based PrP 5' UTR mRNA reporter, plate reader. inhibition, % (no concentration beside the values). 0.35% of 340,000 active;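 active means every replicate at 50% or more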;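 further: 0 = median of the neutral control wells; tested in H4 reporter cells; numbers are from one replicate; inactives centre near -14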
Autofluor counter = counter-screen for toxin protease inhibitors: compound fluorescence; compound autofluorescence counterscreen, microsphere flow cytometry; hits give high values; fluorescence intensity (concentration not given with the values); 3.1% of 360,000 active;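 active means at least 3 SD above the mean of all compounds, about 16000 in these data; inconclusive means too few beads counted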;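 further: 100 nL of 1 mM stock went into each well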
Sa RN4220 lethal = growth inhibition of S. aureus RN4220, primary screen, OD600 | 16 h | inhibition, % (concentration not given with the values) | 0.33% of 330,000 active | AID 1259311, 2017;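 active means z-score of -3 or lower and OD600 up to 0.18 on both plates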;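 further: plate controls were untreated cells for no effect and reference antibiotic for full effect; stock transfer was 100 nL into about 80 µL; one replicate is shown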
Mtb hypoxia rep = PubChem AID 1159583; M. tuberculosis hypoxia-regulated fluorescent reporter, fluorescence; fluorescence inhibition, % (concentration not given with the values); 0.1% of 300,000 active;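 active means 35 to 45% if threefold the growth effect, above 45% if 1.5-fold the growth effect; inactive means the rest, general growth blockers included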;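 further: wells of about 50 µL received 100 nL stock; 0% = vehicle wells and 100% = reference inhibitor wells; whole bacteria with a GFP reporter of the hypoxia response; strong numbers were not always called active; many hits fall short of the cut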
BJeLR lethal = MLPCN primary cell-based screen for lethality selective to Ras in HRASV12 cells | AID 1554, 2009 | inhibition, % (no concentration beside the values) | BJeLR (HRASV12) viability, CellTiter-Glo ATP luminescence, 48 h; reference of the scale not given here | 0.17% of 300,000 active;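 active means replicate mean above 50%; inconclusive means above 50% but judged a plate artefact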;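 further: 50 nL library stock added to about 25 µL; numbers are from one replicate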
Sa ugtP lethal = growth inhibition of ugtP-null S. aureus, primary screen, RN4220 ugtP deletion, OD600. 16 h; some inactives read as strong as hits. growth inhibition, % (test concentration not listed). 0.54% of 330,000 active. AID 1259309, 2017;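 active means z-score under -3 and OD600 up to 0.15 on both plates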;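 further: plate controls were untreated wells for no effect and antibiotic for full effect; wells of about 80 µL received 100 nL stock; the first replicate is given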
Mtb hypoxia rep growth = further read-out of Mtb hypoxia rep, marked with its call; growth inhibition, %; measured here: M. tuberculosis growth (absorbance);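 0% = vehicle and 100% = reference antibiotic; read after six days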
Active calls of the source: *; u = inconclusive; x = not tested or not shown; & = joins results of further samples.

compound,Autofluor counter,Mtb hypoxia rep growth,Sa ugtP lethal,BJeLR lethal,Sa RN4220 lethal,Mtb hypoxia rep,PrP UTR inh
COc1ccc(CC(=O)NCc2n[nH]c(=S)n2-c2ccc(F)cc2)cc1,2923,4,0,9,-1.3,-4,-1
CCCCCC1CC(=O)C=C(C)C1C(=O)OC (stereo not drawn),x,4,4,5,1.8,7,-7
CCOC(=O)C1CCCN(C(=O)c2ccc(C(=O)c3ccccc3)cc2)C1 (stereo not drawn),u,1,0,x,2.1,-1,-5
CCOC(=O)c1ccccc1NC(=O)CSc1ccccc1,4720,x,-9,5,1.5,x,0
Cc1cc(SCC(=O)NCCC2=CCCCC2)nc2ccccc12,7454,8,-8,-3,-2.3,6,-13
OC1CCN(Cc2cn(Cc3ccccc3)nc2-c2cc3ccccc3o2)CC1,5454,9,-1,-3,-0.9,-5,-45
Cc1cc(C(=O)CSc2nc3ccccc3c(=O)[nH]2)c(C)n1CC1CCCO1 (stereo not drawn),4355,x,x,5,x,x,-70
CC(NC(=O)Cc1ccccc1)C1COc2ccccc2O1 (stereo not drawn),3878,7,6,1,7.9,0,-30
COC(=O)CCCC(=O)NC1CCCc2c1cnn2-c1ccc(F)cc1F (stereo not drawn),3310,12,2,-15,0.7,-1,-3
CCNc1nc(N2CCCC2)nc(N2CCCC2)n1,2085,1,16,-4,6.2,-9,-18
O=C1CC2(CCN(C(=O)c3ccc(Br)cc3)CC2)Oc2ccccc21,7022,3,13,1,9.2,7,-24
CCN1CCCC1CNC(=O)C(=O)Nc1cccc(OC)c1 (stereo not drawn),2063,-4,5,7,-0.3,1,-10
C/C(CC(=O)Nc1cccnc1)=N\NC(=O)C(C)Oc1ccc(Cl)cc1Cl (stereo not drawn),4736,x,x,2,x,x,-21
O=C(NNS(=O)(=O)c1ccc(F)cc1F)c1csc(-c2cccnc2)n1,3929,3,3,0,2.7,6,-4
N#Cc1c(SCC(N)=O)nc2c(c1-c1ccncc1)CCCC2,4517,0,6,-4,0.7,12,-4
COc1ccc(N2CCN(CC(=O)Nc3cc(C)on3)CC2)cc1,5893,0,10,-10,4.6,13,-11
Cc1ccc(C)c(SCc2nc3sc(C(=O)O)c(C)c3c(=O)[nH]2)c1,4350,5,13,1,3.4,3,-11
COc1ccc(CN(C)CC(=O)Nc2sc3c(c2C#N)CCC3)cc1OC,4458,-2,14,-3,5.0,5,-2
O=C(c1ccccc1)N1CCC(CC2CC(c3ccc(Cl)cc3)=NO2)(C(=O)NCC2CCCCC2)CC1 (stereo not drawn),3967,9,-13,10,-3.9,1,-26
Cc1nnc(N/N=C/c2ccc(-c3ccc(Br)cc3)o2)n1N,4310,x,x,-5,x,x,-17
CCCCCCCCN1C(CC(=O)OC)c2cc(C(F)(F)F)ccc2S1(=O)=O (stereo not drawn),x,-5,7,x,5.2,1,x
CC1CCC(NC(=O)c2ccc3c(c2)S(=O)(=O)c2ccccc2C3=O)CC1 (stereo not drawn),3439,-8,8,-5,13,-6,0
COc1ccc(NC(=O)Cc2ccccc2)cn1,4342,5,1,4,1.5,-7,-21
O=c1[nH][nH]c(C(F)(F)F)c1C=Nc1ccccc1,4529,6,4,6,2.4,8,-2
CN1C(=O)/C(=C/c2ccc(-c3ccccc3[N+](=O)[O-])o2)SC1=Nc1ccc(Cl)c(C(=O)O)c1,9049,x,x,5,x,x,-27
CS(=O)(=O)N(CCC#N)Cc1ccc(/C=C2\C(=O)Nc3ccccc32)o1,4259,11,-2,-12,1.3,5,4
CSc1ccc(-c2sc(Nc3cccc4ccccc34)n[n+]2-c2ccccc2)cc1,3948,21,7,12,-7.4,5,-11
O=C1CCC(C(=O)N2CCC(CO)(Cc3ccc(Cl)cc3)CC2)=NN1,4573,-3,3,4,1.3,6,-25
Cc1cc(NC(c2cccnc2)c2c(C)[nH]c3ccccc23)no1 (stereo not drawn),3190,1,2,5,3.1,10,-5
CC1Cc2nc(SCC(=O)N3CCN(c4ccccc4)CC3)n(CCc3ccccc3)c(=O)c2S1 (stereo not drawn),6110,16,-15,-15,11,2,-8
O=C(O)c1ccc2c(c1)C(=O)N(N1C(=O)c3ccccc3C1=O)C2=O,10863,4,4,-12,7.4,1,-12
COC(=O)C1=C(c2ccc(OCc3ccccc3)cc2)CC2CCC1N2C(=O)NCc1cccc(C(F)(F)F)c1 (stereo not drawn),x,1,11,x,-10,0,x
O=C(c1ccc(=O)[nH]c1)N1CCN(S(=O)(=O)c2cc(C(F)(F)F)ccc2Cl)CC1,4351,-8,1,-9,0.8,-5,-31
NC(Cn1cncn1)=NNC(=O)c1ccc(Cl)cc1Cl,x,-4,-8,x,-9.4,-6,x
CCc1cccc(C)c1NC(=O)c1ccoc1C,3017,0,4,0,1.9,15,-10
COc1ccc(S(=O)(=O)N2CCOCC2)cc1NC(=O)CN1C(=O)NC2(CCCCC2C)C1=O (stereo not drawn),3796,9,-7,x,-3.1,17,-15
CC1(C)CC(NC(=O)c2ccccc2NS(=O)(=O)c2ccc(Br)cc2)CC(C)(C)N1,4140,6,5,x,-3.3,11,-24
COc1cccc(/C=C2\SC(=S)N(CCCC(=O)N3CCCCC3)C2=O)c1,4385,24,-7,12,-0.5,21,-1
O=C(CNC(=O)c1cc(S(=O)(=O)N2CCOCC2)ccc1N1CCCC1)Nc1ccc(F)c(F)c1,2904,-6,-6,x,-2.2,-5,-20
COc1ccc(S(=O)(=O)N(Cc2ccccc2)c2ccccc2C(=O)Nc2ccccc2C(=O)NCc2ccco2)cc1,1968,12,-5,-12,8.4,-5,-2
COc1cccc(NC(=O)CSc2nc(C)cs2)c1,4286,x,3,-2,3.0,x,-16
CC(=O)N1c2ccc(S(=O)(=O)NCCC(=O)N3CCC(C)CC3)cc2CC1C (stereo not drawn),4401,-7,5,-5,3.6,1,-5
CCOc1ccc(C(CCC(=O)O)=NNC(=O)c2cccc(S(=O)(=O)Nc3ccccc3OC)c2)cc1,x,3,6,x,2.2,-1,x
COc1ccc(C(=O)NC2CCN(CC(=O)N3CCCCC3)CC2)cc1,3411,3,5,-8,6.1,5,-15
CCOC(=O)c1cccc(NS(=O)(=O)Cc2ccccc2)c1,4711,18,5,-1,-1.7,1,-3
Cc1ccc(Nc2nc3c([nH]2)c(=O)[nH]c(=O)n3C)cc1,3039,5,3,0,14,-3,-15
Cc1cc(C)c(C)c(S(=O)(=O)NC2CCCCC2)c1C,u,14,5,0,3.5,6,-20
COc1ccc(C(=O)CSC2=NS(=O)(=O)c3cc(Cl)ccc3N2)cc1,x,-2,7,-10,11,9,-24

Entries of single compounds, looked up by structure.
COc1ccc(C(=O)NC2CCN(CC(=O)N3CCCCC3)CC2)cc1 in the list: Autofluor counter = 3411; Mtb hypoxia rep growth = 3; Sa ugtP lethal = 5; BJeLR lethal = -8; Sa RN4220 lethal = 6.1; Mtb hypoxia rep = 5; PrP UTR inh = -15
COc1ccc(C(=O)CSC2=NS(=O)(=O)c3cc(Cl)ccc3N2)cc1 in the list: Autofluor counter = x; Mtb hypoxia rep growth = -2; Sa ugtP lethal = 7; BJeLR lethal = -10; Sa RN4220 lethal = 11; Mtb hypoxia rep = 9; PrP UTR inh = -24

Next entries follow:
compound,Autofluor counter,Mtb hypoxia rep growth,Sa ugtP lethal,BJeLR lethal,Sa RN4220 lethal,Mtb hypoxia rep,PrP UTR inh
COc1cc(C=NNC(=O)c2cccc3ccccc23)cc(OC)c1O,x,4,9,x,2.5,5,x
CCOc1ccccc1NC(=S)Nc1ncccc1C,2608,4,19,0,15,10,-5
Cc1ccc(S(=O)(=O)NC(=O)NC(=O)N(C)S(=O)(=O)c2ccc(C)cc2)cc1,1914,5,-1,-5,1.8,0,-8
CC(NC(=O)CCc1nnc(CCCc2ccccc2)o1)c1ccccc1 (stereo not drawn),2719,4,0,-9,2.1,11,-49
O=C(NCc1ccccc1C(F)(F)F)C1CCC(=O)N(C2CC2)C1 (stereo not drawn),5939,-5,-1,12,0.5,10,-9
CCOC(=O)C1=CN(Cc2cccc(I)c2)S(=O)(=O)N(C)C1C (stereo not drawn),3933,3,7,x,2.4,-14,90*
Cc1ccc(C)c(CN2C(=O)COc3ccccc32)c1,4028,-1,7,-9,2.2,9,-23
Cc1c(C(=O)NCc2ccc3c(c2)OCO3)cccc1[N+](=O)[O-],2370,9,3,6,4.0,3,-7
CCCCN(CCCC)CCNC(=O)c1cn(C)c2ccc(S(=O)(=O)N3CCCC3)cc2c1=O,4391,-7,5,-2,2.1,1,-5
O=C(NCCn1ccc2ccccc21)c1ccc(S(=O)(=O)N2CCCCC2)cc1,11379,1,-16,-3,-12,0,-28
C#CCNC(=O)C1=CC(c2ccc(C#C)cc2)CC(OCc2ccc(CO)cc2)O1 (stereo not drawn),x,3&5,2&2,x,-4.0&-3.8,18&-1,x
CCOC(=O)C(C)Sc1nnc(CNC(=O)c2ccc(OC)cc2)n1C1CCCCC1 (stereo not drawn),6916,18,-7,16,1.0,-8,-14
O=C(Nc1cc(C(F)(F)F)ccc1Cl)C(Sc1nnc(-c2cccs2)o1)c1ccccc1 (stereo not drawn),2168,9,7,5,2.0,7,-12
CCC(=O)NCCCCCCNC(=O)CC,13647,4,-2,-3,3.0,0,-13
O=C(CSC1=NCCS1)Nc1ccnc2ccccc12,10879,9,-5,-2,-0.4,1,3
Cc1ccc(SCc2ccc(C(=O)Nc3ccccc3C(=O)NC(C)C)cc2)cc1,7283,-10,3,19,2.5,-3,-29
Cc1cc(C)cc(NC(=O)N2CCN(S(C)(=O)=O)CC2)c1,4031,2,-3,-3,-1.0,0,-15
Cn1nc(C(F)(F)F)c(CO)c1Sc1ccc(F)cc1,3308,-18,15,-4,4.3,0,-19
O=C(NC1CC1)C(=O)c1c(-c2ccccc2)[nH]c2ccccc12,4290,3,-2,4,7.2,-9,-36
CCCc1nc2oc3c(=O)[nH]cnc3c2c2c1COC(C)(C)C2,3851,3,2,-9,1.4,12,-5
Cc1ccc(CNc2ncnc3cc(Cl)ccc23)cc1,3904,15,-11,-7,-0.3,14,-9
CC1CCCC(C)N1C(=O)CN1c2cccc3cccc(c23)S1(=O)=O (stereo not drawn),6743,-1,2,x,3.3,-8,1
Cc1c(C(=O)OCC(O)=C(C#N)c2nc3ccccc3[nH]2)oc2ccc(Br)cc12,3149,-4,5,x,5.9,-2,1
O=C(CN1CCN(S(=O)(=O)c2ccccc2)CC1)NC(=O)NCc1ccccc1,3866,x,4,2,-0.4,x,-4
CC(C)N1CCN(Cc2ccc(-c3ccccc3Cl)o2)CC1CCO (stereo not drawn),2453,1,16,x,1.7,17,-5
CCN(C(=O)C1=COCCO1)c1nc2c(C)cccc2s1,x,-10,4,-7,-2.3,0,-67
COC(=O)N/N=C/c1cc([N+](=O)[O-])cc(Br)c1O,2118,x,x,-6,x,x,-29
Cn1c(=NC(=O)CS(=O)(=O)c2ccccc2)sc2ccccc21,5142,10,3,-1,3.5,6,-56
CC1CCN(C(=O)CNC(=O)c2ccc(Cl)cc2Cl)CC1,3597,12,9,1,4.2,19,-37
O=C1C(=O)N(c2ccccc2)c2ccccc21,22183*,6,0,-1,2.9,6,-5
O=C(O)c1cccnc1Br,2510,10,7,-9,1.5,-8,3
CCc1cccc(C)c1NC(=O)CSc1nc2ccccc2n1CC(=O)N(C)C,13038,7,-3,x,4.0,6,-10
O=C(O)CC(C(=O)O)C(c1ccccc1)c1ccccc1 (stereo not drawn),3753,8,-3,x,-3.5,-1,-14
O=C(N/N=C/c1cccc(Cl)c1)c1c(O)c2c([nH]c1=O)CCCC2,4346,x,x,11,x,x,-33
O=C1C=C(Nc2cccc(Cl)c2)CC(c2ccco2)C1 (stereo not drawn),12975,3,3,4,8.6,3,-15
OCC(O)C=NNc1nc(Nc2ccccc2)nc(Nc2ccccc2)n1 (stereo not drawn),x,14,-4,x,8.8,13,x
COc1ccc(-c2[nH]ncc2CN2CCC(N3CCSCC3)CC2)c(F)c1,4862,-8,6,-1,0.9,5,-31
